# StopGo RLuc: lowers the Renilla signal of an FMDV 2A StopGo reporter. HEK cells with a luciferase reporter of 2A StopGo recoding. Potency, µM (doses to about 57.5 µM), inactives show at the top dose signal change, negative = less light. 120,000 compounds, 0.32% hits. AID 1745857; active means well fitted falling curve with a large enough effect; inconclusive means small, poorly fitted or top-dose-only effect; inactive means no such curve, though single readings can be large or run the other way; note: nearly all actives have a fitted effect of over 55% in size; overnight with compound
# 2A firefly: lowers the firefly signal of an FMDV 2A StopGo reporter; Potency, µM (series often up to 57.5 µM), inactives show at the highest dose signal change, negative = less light; AID 1745856; HEK cells with a luciferase reporter of 2A StopGo recoding; 120,000 compounds, 0.23% hits; active = well fitted falling curve with a large enough effect; inconclusive = small, poorly fitted or top-dose-only effect; inactive = no such curve, though single readings can be large or run the other way; note: nearly all actives have a fitted effect of over 60% in size; overnight with compound
# Starred values were filed as active, the others as inactive; u = inconclusive; & = joins results of further samples; [ ] = remark or other dose. % is set by controls: 0 for no effect and ±100 for the full control effect; potency is the fitted concentration of half-maximal effect.
# Results follow in this order: StopGo RLuc, 2A firefly
- Cc1cc(N2CCC(C)CC2)nc2ccc(NC(=O)Cc3c(F)cccc3Cl)cc12
    -4%, 5%
- Cc1nn(CC(=O)N2CCN(c3ccccc3)CC2)c(=O)c2cc3cc(F)ccc3n12
    0%, -10%
- Cc1ccc2[nH]c(=O)c(CN(C)S(C)(=O)=O)cc2c1
    6%, 22%
- CCOC(=O)C1CCCN(c2nc3c(S(=O)(=O)c4ccc(C)c(C)c4)nnn3c3ccc(Cl)cc23)C1 (stereo not given)
    -4%, -8%
- Cc1ccc(NC(=O)CN(C)C(=O)c2oc3ccccc3c2C)cc1
    -3%, 0%
- CC(C)COC(=O)C(C#N)c1nc2ccccc2nc1N1CCN(Cc2ccccc2)CC1 (stereo not given)
    21%, 10%
- CNC(=O)NC(=O)Cn1nnc(-c2cccc(F)c2)n1
    18%, 17%
- CCSC1=NC2(CCN(C(=O)NC3CCCCC3)CC2)N=C1c1ccc(Cl)cc1
    12%, -4%
- CCCOc1ccc(-c2nn(-c3ccccc3)cc2C2NC(=O)NC(C)=C2C(=O)OC)cc1 (stereo not given)
    16%, 40%[activator]
- Cc1ccc(Cl)cc1N1CCN(C(=O)Cn2ncc3c4ccccc4n(C)c3c2=O)CC1
    0%, -4%
- O=C(NCCCNC(=O)c1cc(Cl)ccc1Cl)c1nc2ccccc2c(=O)[nH]1
    -2%, 19%
- O=C(C1CCC(Cn2c(=O)c3sccc3n(Cc3cccc(F)c3)c2=O)CC1)N1CCOCC1 (stereo not given)
    -5%, -4%
- Cc1ccsc1CN(C(=O)c1ccc(F)cc1)C1CCS(=O)(=O)C1 (stereo not given)
    -4%, 3%
- Cc1ccc(O)c(NC(=O)C2=CC(c3cccs3)=NS(=O)(=O)N2C)c1
    18%, 1%
- O=C(Nc1ccccc1C(=O)N1CCCCC1)c1cnc2ccccc2n1
    19%, 53%[activator]

# Additional structures
# Results follow in this order: StopGo RLuc, 2A firefly
- Cc1ccc(C)c(CN2C(=O)C(O)(c3c[nH]c4ccccc34)c3ccccc32)c1 (stereo not given)
    14%, -9%
- CSc1cccc(NC(=O)CCc2ncc(-c3ccc(F)cc3)o2)c1
    1%, 48%[activator]
- Cc1ccc(S(=O)(=O)c2cc3c(cc2NC(=O)COc2ccc(C)cc2C)n(C)c(=O)n3C)cc1
    49%[activator], -4%
- Cn1nc(C(=O)N2CCC(c3ccccc3)C2)c2c1-c1ccsc1CC2 (stereo not given)
    27%, 97%[activator]
- COc1ccc(N2CCN(C(=O)c3ccc(-c4nc(COc5ccccc5)c(C)o4)cc3)CC2)cc1
    -7%, -12%
- CCC(O)c1nc2ccccc2n1Cc1cc(C)ccc1C (stereo not given)
    3%, -13%
- CC1CCc2nc3ncn(Cc4ccc(Cl)cc4)c(=O)c3cc2C1 (stereo not given)
    -2%, 89%[activator]
- CCCC(=O)Nc1ccc(Cl)c(NC(=O)c2ccc(OCC)cc2)c1
    0%, 116%[activator]
- COCCN1Cc2cccc(C(=O)Nc3ccc(C)cc3C)c2C1=O
    12%, -4%
- CC(C)(CNC(=S)NC1CC2CCC1C2)N1CCOCC1 (stereo not given)
    0%, 1%
- COc1ccc(C(=O)N2CCN(c3nc4c(C)c(Cl)ccc4s3)CC2)c(OC)c1
    -3%, -16%
- CCCCc1ccc(C(=O)Cn2cnc3c2c(=O)n(C)c(=O)n3C)cc1
    u, u
- N#C/C(=C/c1ccc(Cl)cc1)c1nc(-c2ccc(Br)cc2)cs1
    -5%, -6%
- Cc1cccc(C2C3=C(COC3=O)Nc3c2c(=O)[nH]c(=O)n3CC(C)C)c1 (stereo not given)
    9%, 14%
- O=C(O)c1cc(Oc2ccc(C(F)(F)F)cc2Cl)ccc1[N+](=O)[O-]
    -8%, -2%[11.5 µM]

# Next part:
# Results follow in this order: StopGo RLuc, 2A firefly
- CCCN(CCC)S(=O)(=O)c1ccc(OC)c2ncccc12
    111%[activator], 30%[activator]
- COCCNC(=O)Cn1ccc2cc(S(=O)(=O)N3CCCCCC3)ccc21
    56%[activator], 5%
- C#CCN1CCN(Cc2ccc3c(c2)OCCO3)CC1
    8%, 0%
- COC(=O)c1ccc(CNC(=O)c2ccc(Oc3ccccc3)cc2)cc1
    4%, -4%
- COc1ccc(-c2noc(CSc3nnc(Cc4ccccc4)n3-c3ccccc3)n2)cc1OC
    84%[activator], -5%
- CC(C)c1ccc(Cc2cn3cc(-c4cc5ccccc5oc4=O)nc3s2)cc1
    86%[activator], 226%[activator]
- Fc1ccc(CNC(=S)N2CCc3ccccc32)cc1
    211%[activator], 16%
- Cc1ccc(C)c(Nc2nc(-c3ccccc3)c3cc(Br)ccc3n2)c1
    10%, 5%
- CCOC(=O)CC(NC(=O)Cn1nnc(-c2ccc(C(F)(F)F)cc2)n1)c1ccc(C)cc1 (stereo not given)
    -11%, 2%
- C/C(=N/O)c1cc2ccc(O)cc2oc1=O
    1%, 16%
- COc1ccc(C2C(C(C)=O)=C(O)C(=O)N2c2ccc(OC)cc2)cc1 (stereo not given)
    57%[activator], 69%[activator]
- CCC(C)NC(=O)c1ccccc1NC(=O)C1CCN(S(=O)(=O)Cc2ccccc2)CC1 (stereo not given)
    -12%, -14%
- Cc1ccc2[nH]c(C)c(CC(=O)N(C)CCC#N)c2c1
    -1%, -5%
- O=C(Nc1cccc(N2CCCC2=O)c1)c1ccccc1SC1CCS(=O)(=O)C1 (stereo not given)
    0%, 18%
- Cc1c(C(=O)C(F)(F)F)c2ccccc2n1CCOc1ccccc1F
    27%, 14%

# One compound at a time (already shown):
# `O=C(Nc1cccc(N2CCCC2=O)c1)c1ccccc1SC1CCS(=O)(=O)C1` (stereo not given) is listed as StopGo RLuc: 0%; 2A firefly: 18%
# `Cc1ccc2[nH]c(C)c(CC(=O)N(C)CCC#N)c2c1` is listed as StopGo RLuc: -1%; 2A firefly: -5%

# Other structures follow:
# Results follow in this order: StopGo RLuc, 2A firefly
- COc1ccc(CCNC(=O)Cc2ccc(NC(=O)N3CCSc4ncccc43)cc2)cc1OC
    -10%&-17%, 5%&-15%
- CCCOc1c(OC)cccc1C1CC(=O)Nc2c1c(C)nn2-c1ccc(OC)nn1 (stereo not given)
    -29%, u
- COc1ccc(CCNC(=O)Cn2ncc3c(C)n(Cc4ccccc4F)c(C)c3c2=O)cc1OC
    -8%, -13%
- O=C(CCc1ncc(-c2ccccc2)o1)NC(C1CC1)C1CC1
    12%, 41%[activator]
- N#Cc1ccc(OCC(=O)c2ccc(C3CCCCC3)cc2)cc1
    25%, 19%
- O=C(CCC(=O)OCc1ccc(Cl)cc1)Nc1ccc2c(c1)oc1ccccc12
    -1%, 138%[activator]
- COc1ccc(NC(=O)C2CCN(S(=O)(=O)c3c(C)noc3/C=C/c3cccs3)CC2)cc1Cl
    6%, -22%
- O=C(Cn1c(SCCOc2ccccc2)nc2ccccc21)N1CCOCC1
    -8%, -7%
- COc1ccc(-n2[nH]c(CSc3nnnn3-c3ccccc3)cc2=O)cc1
    -1%, 2%
- COc1ccccc1C(=O)n1nc(-c2ccccc2)nc1NCc1ccc(Cl)cc1
    -7%, 4%
- CC(=O)c1ccc(NC(=O)COc2ccccc2-c2nc(-c3ccc(C)cc3)no2)cc1
    -9%, 5%
- CCc1ccc(CNC(=O)C(CC)n2ccc3cc(S(=O)(=O)N4CCCCC4)ccc32)cc1 (stereo not given)
    40%[activator], -11%
- CCc1ccc(-n2nc(CO)c(C(=O)NCc3cccnc3)n2)cc1
    9%, 7%
- O=C(CCc1cc(Cl)no1)N(CCS(=O)(=O)N1CCOCC1)Cc1cccnc1
    -7%, -7%
- COCCCNC(=O)c1c(-c2ccccc2)c(-c2ccccc2)nn(C)c1=O
    -15%, -18%

# The results go on:
# Results follow in this order: StopGo RLuc, 2A firefly
- O=C(O)C1CCCC(C(=O)O)C1 (stereo not given)
    4%, 0%
- CC(C)c1cc(N2CCN(C)CC2)n2c(nc3ccccc32)c1C#N
    11%, 10%
- COc1ccc(CCNC(=O)C2CCCN(c3nc4c(C)cc(C)cc4s3)C2)cc1OC (stereo not given)
    -2%, 16%
- COc1cc(C2CC(=O)N(Cc3ccc(F)cc3)c3ccccc3S2)cc(OC)c1OC (stereo not given)
    u, u
- O=C(CCc1ccccc1)NC1CC(=O)N(c2ccccc2)C1 (stereo not given)
    -1%, -1%
- Cc1cccc(CS(=O)CCC(=O)Nc2ccccc2)c1 (stereo not given)
    23%, 0%
- O=C(c1cccs1)N(Cc1ccncc1)C1CC1
    -14%, -2%
- CN(Cc1cccc(F)c1)C(=O)COc1ccc2ccc(=O)oc2c1
    -7%, -4%
- CCn1c(CNC(=O)c2ccccc2F)nnc1SCC(=O)N1CCc2ccccc21
    -3%, 3%
- O=C(O)/C=C/c1ccc(Oc2ccc(Cl)cc2)cc1
    7%, 21%
- CCCc1cnc2c(c1SCC(=O)NCc1ccc(C)cc1)c(=O)n(C)c(=O)n2C
    -3%, -16%
- Cc1ccc(CNC(=O)NC2COc3ccccc3C2)cc1 (stereo not given)
    -2%, 1%
- COc1ccccc1C(=O)NC1=NC(c2ccc(Br)cc2)CC(=O)N1 (stereo not given)
    -4%, 122%[activator]
- S=C(NCCC12CC3CC(CC(C3)C1)C2)Nc1ccc(Cl)cc1
    u, u
- COC(=O)c1cnc(NC(=O)COc2cccc3ccccc23)s1
    -4%, 11%

# Reprinted from the part before: 2 compounds, followed by the next part.
# Results follow in this order: StopGo RLuc, 2A firefly
- S=C(NCCC12CC3CC(CC(C3)C1)C2)Nc1ccc(Cl)cc1
    u, u
- COC(=O)c1cnc(NC(=O)COc2cccc3ccccc23)s1
    -4%, 11%
- O=C(c1cccc(Br)c1)N(Cc1cccc2[nH]ccc12)C1CC1
    295%[activator], 12%
- O=C(CSc1nnnn1C1CCCCC1)NCc1ccccc1CN1CCOCC1
    -7%, -8%
- O/N=C(/c1ccccc1)c1ccc(O)cc1O
    2%, 0%
- CCCn1c(=O)n(CC(=O)N(C)CC(=O)Nc2ccccc2Br)c2ccccc21
    79%[activator], 35%[activator]
- NC(=O)c1ccc(NC(=O)CSc2nc3ncccc3[nH]2)cc1
    8%, 3%
- O=c1c2sc3ccccc3c2n(Cc2ccc(F)cc2)c(=O)n1Cc1ccccc1
    -11%, -7%
- Cc1cc(N2CCN(c3ccc(F)cc3)CC2)n2nc(-c3ccc(Cl)cc3)nc2n1
    -14%, -23%
- Cn1nnnc1SCCNCc1ccc(OCc2ccccc2)cc1
    -14%, 32%[activator]
- CN1CCCCC1=NCCCn1cnc2c1c(=O)n(C)c(=O)n2C
    0%, 5%
- O=C(CSc1c2c(nc3ccc(Cl)cc13)CCCC2)NCc1ccccc1Cl
    -5%, -11%
- COc1ccc(S(=O)(=O)NCCc2sc3nc(-c4ccc(C)cc4)nn3c2C)cc1C
    -14%, u
- Cc1ccc(CCNC(=O)c2nnc(Cc3cccc(F)c3)o2)cc1
    -12%, -12%
- COc1ccccc1N1CCN(Cc2nnc(-c3ccccc3C)o2)CC1
    3%, -11%
- CN(C(=O)Nc1ccc(F)cc1F)C(c1ccc(Cl)cc1)c1nccn1C (stereo not given)
    -9%, 72%[activator]
- O=S(=O)(Nc1nc2ccccc2nc1Nc1ccccc1Cl)c1cccs1
    -9%, -8%

# The list goes on:
# Results follow in this order: StopGo RLuc, 2A firefly
- COc1ccc(Cl)cc1NC(=O)CCc1ncc(-c2ccc(C)cc2)o1
    3%, 22%
- CC(O)c1ccc(-c2ccc(CNc3nnnn3C)o2)cc1 (stereo not given)
    15%, 12%
- O=C1CN(C(=O)Cn2cnc3c(Cl)cc(Cl)cc3c2=O)c2ccccc2N1
    -13%, -14%
- Cc1ccc(C(=O)NCCC(=O)N2CCCC2)c(C)c1
    8%, 62%[activator]
- COC(C(=O)NCc1ccc(C)cc1)(c1ccccc1)c1ccccc1
    11%, -20%
- Cc1nc2sc3c(c2c2nc(C(=O)NCC(C)C)nn12)CC(C)(C)OC3
    0%, -2%
- COc1ccc(-n2nc(C)c3c2NC(=O)CSC3c2cc(OC)c(O)c(OC)c2)cc1 (stereo not given)
    2%, 18%
- CCCCc1ccc(NC(=O)c2cccn(Cc3ccc(Cl)cc3)c2=O)cc1
    11%, 43%
- COP(=S)(OC)Oc1ccc(SC)c(C)c1
    -9%, -4%
- Cn1c(SCc2cccc3cccnc23)nnc1C(F)(F)F
    10%, 0%
- O=C(NCc1ccccc1F)Nc1ccc2oc(C3CC3)nc2c1
    -26%, 25%
- Cc1ccc(-c2noc(-c3cccc(F)c3)n2)cc1
    16%, 286%[activator]
- COc1ccc(Cl)cc1NC(=O)c1cnc(N2CCCCC2)c2ccccc12
    -4%, -6%
- CCc1ccc(-n2nnc(-c3nc(-c4cccs4)no3)c2N)cc1
    -3%, 37%[activator]
- O=C(NC1CC1)c1cccc(NC(=O)C2CCN(S(=O)(=O)c3ccc4c(c3)CCCC4)CC2)c1
    57%[activator], 7%

# Additional compounds
# Results follow in this order: StopGo RLuc, 2A firefly
- COc1ccc(S(=O)(=O)NCCc2ccccc2)cc1-c1nc(C(C)C)no1
    144%[activator], 9%
- CC(NC(N)=O)C(=O)O (stereo not given)
    48%[activator], 0%
- CCCCSCCCNC(=O)c1c[nH]c2ccc(S(=O)(=O)Nc3cccc(OC)c3)cc2c1=O
    112%[activator], u
- Cc1ccccc1C(C)NC(=O)/C=C/c1ccco1 (stereo not given)
    4%, -11%
- CC1CCC(=C(C#N)C(=O)NC2CC2)CC1 (stereo not given)
    9%, 3%
- CCc1ccc(NC(=O)c2cnc3c(-c4ccccc4)c(C)nn3c2C)cc1
    -14%, -19%
- COc1ccc(NC(=O)C(c2ccccc2)N(C)C(=O)/C=C\c2ccc3c(c2)OCO3)cc1 (stereo not given)
    -5%, -23%
- Cc1ccc(C)c(CN2CCCN(CC(=O)Nc3ccc(C)c(C)c3)S2(=O)=O)c1
    -9%, -23%
- Cc1nc2sc3c(c2c2nc(C(=O)NCc4ccccc4)nn12)CC(C)(C)OC3
    3%, 1%

# Bioassay records deposited in PubChem BioAssay by National Center for Advancing Translational Sciences (NCATS).
